Screens from PubChem.
HCMV UL50-53 inh: inhibitors of HCMV UL50-UL53 interaction, biochemical, HTRF | HCMV UL50-UL53 nuclear egress complex (human cytomegalovirus) | normalized percent inhibition | inhibition, % (concentration not given with the values) | 190,000 compounds, 0.15% hits | AID 1918969, 2023;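 active = both replicates at 50% or more, plus weaker picks with an unusually low signal ratio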;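 also: stock transfer was 100 nL into about 20 µL; 0% = negative control wells and 100% = wells with untagged competitor protein; inactives centre near -12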
GIV Gai3 FP: inhibitors of GIV peptide binding to Galpha-i3, primary screen, biochemical, fluorescence polarization, FITC-GIV GBA peptide, rat Galphai3 | Guanine nucleotide-binding protein G(i) subunit alpha-3 (Rattus norvegicus), P08753 | 90 min; stronger effect = lower value; scaled: aluminum fluoride 0%, vehicle 100% | percent of control (FP), % (no concentration beside the values) | 210,000 compounds, 0.42% hits;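 active = replicate mean at 85% of control or lower, very high polarization wells dropped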;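 also: wells of about 15 µL received 100 nL stock; the first replicate is given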
Target sequence (P08753 whole entry, looked up): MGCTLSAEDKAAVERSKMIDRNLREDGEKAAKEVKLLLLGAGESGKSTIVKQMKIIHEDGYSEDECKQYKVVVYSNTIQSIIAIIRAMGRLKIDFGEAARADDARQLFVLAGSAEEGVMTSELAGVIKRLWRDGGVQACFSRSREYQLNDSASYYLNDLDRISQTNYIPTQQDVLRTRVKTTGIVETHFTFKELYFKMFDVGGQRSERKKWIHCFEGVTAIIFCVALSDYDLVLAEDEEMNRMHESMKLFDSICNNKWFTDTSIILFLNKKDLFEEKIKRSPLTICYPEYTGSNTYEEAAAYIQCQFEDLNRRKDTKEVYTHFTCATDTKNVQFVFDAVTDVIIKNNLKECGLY
Sa growth 42C: S. aureus growth inhibition at 42 and 30 °C, primary screen, LtaS inhibitor project, RN4220, two temperatures. OD600, 20 h, 42 °C; stronger effect = lower value. relative growth, % (no concentration beside the values). 170,000 compounds, 0.53% hits. AID 720641, 2013;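 active = growth at 42 °C up to 50% and 20 or more points under that at 30 °C, or under 10% at both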;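 also: 300 nL library stock went into each well; scaled to the means of positive and negative controls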
Sa growth 42C second temp: recorded beside Sa growth 42C, whose call it bears; relative growth, %; measured here: growth at 30 °C;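 optical density after 20 h as mean of two plates; 100% = untreated growth and lower means inhibition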
Active calls of the source: *; · = no result given; & = joins results of further samples.

SMILES	HCMV UL50-53 inh	Sa growth 42C	Sa growth 42C second temp	GIV Gai3 FP
COC(=O)C1=C(N)OC2=C(C(=O)CCC2)C1c1cccs1 (stereo not given)	-49	·	·	102
O=C(NCc1cccnc1)C1=CCN(S(=O)(=O)c2ccc(F)cc2)CC1	3	103	97	110
CCOC(=O)C1=C(C)N=c2s/c(=C\c3cc(Br)c(O)c(OC)c3)c(=O)n2C1c1cccc(OC)c1 (stereo not given)	-36	·	·	209
Cc1ccc(S(=O)(=O)CC(=O)Nc2nc3c(C)cc(C)cc3s2)cc1	·	127	90	98
COCc1oc2ccc(NS(=O)(=O)c3ccc(C)cc3)cc2c1C(=O)OC	-38	102	80	110
CCN(CC)S(=O)(=O)c1cccc(C(=O)OCC(=O)Nc2cccc(C#N)c2)c1	-16	99	96	·
COc1ccc2[nH]c(=O)cc(C(=O)O)c2c1	-19	68	63	102
COc1ccccc1NC(=O)Cn1c(C)cc(C)c(C#N)c1=O	·	80	83	100
Cc1cccc(C(=O)Oc2ccc(C)c(C)c2)c1	·	86	104	98
CCC(C)NC(=O)Cn1ccc2cc(S(=O)(=O)N3CCCCCC3)ccc21 (stereo not given)	·	126	102	113
COc1cc(OC)nc(NC2OC(=O)c3ccccc32)n1 (stereo not given)	·	74	90	99
CCN(Cc1ccccc1)C(=O)Nc1cn(C)c(=O)c2ccccc12	·	100	91	103

Continued; it opens with the 3 that closed the last part.
SMILES	HCMV UL50-53 inh	Sa growth 42C	Sa growth 42C second temp	GIV Gai3 FP
CCC(C)NC(=O)Cn1ccc2cc(S(=O)(=O)N3CCCCCC3)ccc21 (stereo not given)	·	126	102	113
COc1cc(OC)nc(NC2OC(=O)c3ccccc32)n1 (stereo not given)	·	74	90	99
CCN(Cc1ccccc1)C(=O)Nc1cn(C)c(=O)c2ccccc12	·	100	91	103
Cc1c(NC(=S)NC(=O)c2ccccc2)c(=O)n(-c2ccccc2)n1C	-7	92	88	103
O=c1[nH]c(SCc2ccc(Cl)cc2Cl)nc2ccccc12	-2	91	91	104
COc1ccc(C2=NN3C(C2)c2ccccc2OC3c2ccc(Cl)cc2)cc1OC (stereo not given)	-20	·	·	129
COc1ccc(-n2c(=O)c3ccccc3n(Cc3cccc(C)c3)c2=O)cc1	12	115	96	106
Cc1ccc2cc3c(nc2c1)N(C(=O)C(C)(C)C)CC3	18	·	·	107
CCOC(=O)c1[nH]c2c(c1Cc1ccccc1C)C(=O)CC(c1ccccc1)C2 (stereo not given)	5	108	98	103
CC1(C)Cc2ccccc2-c2nc(-c3ccccc3)n(N)c(=O)c21	-8	106	99	103
CC(=O)c1ccc(NC(=O)C2CCN(c3nnc(C)c4c(C)n(-c5ccccc5)nc34)CC2)cc1	·	100	90	98
CCc1ccc(CNC(=O)CN2C(=O)CCn3nc(-c4cn(C)c5ccccc45)cc32)cc1	·	89	70	109
Cc1onc(-c2ccccc2Cl)c1C(=O)N(C)C1CCCCC1	-14	99	78	108
COC(=O)CCC1CCCCC12OCCO2 (stereo not given)	-6	105	90	98
CCOCCCn1c(=N)c(C(=O)NCC2CCCO2)cc2c(=O)n3cccc(C)c3nc21 (stereo not given)	-138	105	86	107

(next part)
SMILES	HCMV UL50-53 inh	Sa growth 42C	Sa growth 42C second temp	GIV Gai3 FP
CCc1ccc(C(=O)c2cn(CC(=O)Nc3ccc(Cl)cc3)c3nc(C)ccc3c2=O)cc1	-2	·	·	100
CCC(C)NC(=O)CN1C(=O)c2cccnc2Oc2ccc(C)cc21 (stereo not given)	·	100	93	98
CCc1cccc(NS(=O)(=O)c2ccc3c(c2)CCC(=O)N3)c1	·	137	106	106
COc1ccc(C)cc1N(C)C(=O)c1c(C)oc2ncnc(N3CCOCC3)c12	·	89	89	103
C/C(=C/C(=O)C(F)(F)C(F)F)Nc1ccccc1	-4	113	112	100
Cc1cc(C)cc(Nc2nnc(-n3nc(C)cc3C)c3ccccc23)c1	-8	122	84	101
COc1ccc(Cl)cc1C(=O)NCC(c1ccc2c(c1)CCCN2C)N1CCCC1 (stereo not given)	-12	·	·	98
O=C(NCc1ccccc1)NCC1CCN(CCc2ccccc2)C1 (stereo not given)	-23	88	81	101
Cc1ccn2c(=O)c(C3=Nc4ccccc4C3=O)c(O)nc2c1	-2	94	95	111
Cc1ccc(NC(=O)CSc2n[nH]c(-c3ccc(F)cc3)n2)cc1F	·	100	86	101
CSc1ccc(CN(C)C(C)C(=O)Nc2cccc(C#N)c2)cc1 (stereo not given)	-19	69	89	·
CCOC(=O)C(C#N)C(=O)c1ccc(NC(=O)c2ccccc2)cc1 (stereo not given)	9	88	80	103

(next part)
SMILES	HCMV UL50-53 inh	Sa growth 42C	Sa growth 42C second temp	GIV Gai3 FP
COc1ccc(C)cc1S(=O)(=O)N1CCCC(C(=O)NCC2CCCO2)C1 (stereo not given)	-2	98	101	100
C=CCn1c(=O)c(=O)n(Cc2ccc(C(=O)NCCCOC(C)C)cc2)c2ccccc21	6	·	·	101
CC(c1ccccc1)n1cnc2c([nH]c3ccc(F)cc32)c1=O (stereo not given)	-19	·	·	105
O=C(Nc1cc(C(F)(F)F)ccc1-n1cncn1)C1=NN(c2ccccc2)C(=O)CC1	-7	97	84	·
CCOC(=O)c1ccccc1NC(=O)c1c(C)oc2ccc(OCc3ccccc3)cc12	-6	·	·	107
CCCC(=O)Nc1ccc2c(c1)nc1n2CCN(Cc2ccccc2)C1	3&-19	99	89	107&98
COc1ccc(/C=C/C(=O)N2CCC(c3ccccc3)C2)cc1 (stereo not given)	-38	91	74	104
CCOc1ccc(Nc2nc(N)c(C(=O)c3ccc(OCC)cc3)s2)cc1	13	·	·	101
CCCCC(=O)Nc1ccc2c(c1)nc(CCNC(=O)C1CC1)n2C	0	·	·	107
COc1ccc(NC(=O)Cn2ncc3c(C)n(Cc4cccc(Cl)c4)c(C)c3c2=O)cc1	-6	111	92	105
CC1=C(C)CC(C(=O)NCc2c(F)cccc2Cl)C(C(=O)O)C1 (stereo not given)	-6	116	96	100
CCc1ccc(NC(=O)CN2CCSc3ccc(S(=O)(=O)N4CCCC4)cc32)cc1	·	113	83	109

Carrying on.
SMILES	HCMV UL50-53 inh	Sa growth 42C	Sa growth 42C second temp	GIV Gai3 FP
O=C(/C(=N/Nc1ncnc2sc3c(c12)CCCC3)c1ccco1)c1ccco1	-16	91	79	·
Clc1ccc(C2Oc3ccc(Br)cc3C3CC(c4cccs4)=NN32)cc1 (stereo not given)	-14	·	·	115
O=C(CCc1ccc(S(=O)(=O)N2CCOCC2)cc1)N/N=C/c1ccco1	-29	101	97	·
COCCCNC(=O)c1[nH]c2ccccc2c1Sc1ccc(C)cc1	-23	116	96	96
CS(=O)(=O)N1Cc2ccccc2CC1C(=O)OCC(=O)NCc1ccccc1 (stereo not given)	2	104	99	·
O=C(COc1ccccc1F)OCc1cc(=O)n2nc(C3CC3)sc2n1	·	88	78	119
CC(C)C1C(=O)Nc2ccc(S(=O)(=O)NCCc3ccc(Cl)cc3)cc21 (stereo not given)	·	81	76	100
CC(=O)Nc1ccc(C(=O)N2CCc3ccccc3C2)cc1	-1	88	71	109
COc1ccc(N=Cc2ccc3ccccc3c2)cc1	-15	102	83	·
CCOc1ccc(C2=CC(c3cccc(OC)c3)c3ccccc3O2)cc1 (stereo not given)	·	63	42	98
CCN(CC)c1ncnc2sc(C)c(C)c12	-18	116	95	·
c1ccc(Cn2c(Sc3nnnn3-c3ccccc3)nnc2-c2ccccc2)cc1	6	106	102	103

A second format for some results above.
> O=C(CCc1ccc(S(=O)(=O)N2CCOCC2)cc1)N/N=C/c1ccco1
  HCMV UL50-53 inh: -29	Sa growth 42C: 101	Sa growth 42C second temp: 97	GIV Gai3 FP: ·
> COCCCNC(=O)c1[nH]c2ccccc2c1Sc1ccc(C)cc1
  HCMV UL50-53 inh: -23	Sa growth 42C: 116	Sa growth 42C second temp: 96	GIV Gai3 FP: 96
> CS(=O)(=O)N1Cc2ccccc2CC1C(=O)OCC(=O)NCc1ccccc1 (stereo not given)
  HCMV UL50-53 inh: 2	Sa growth 42C: 104	Sa growth 42C second temp: 99	GIV Gai3 FP: ·

(cont.)
SMILES	HCMV UL50-53 inh	Sa growth 42C	Sa growth 42C second temp	GIV Gai3 FP
COC(=O)C1=C(C)NC(=O)/C1=C\c1ccc(C)cc1	-2	89	118	103
O=C(CCc1nnc(-c2ccccc2)o1)c1ccc(Cl)cc1	8	107	93	·
COc1ccc(NC(=O)c2cc3nc(-c4ccc(Cl)c(Cl)c4)cc(C(F)(F)F)n3n2)c(OC)c1	-73	94	81	107
O=C1/C(=C\c2ccsc2)N2CCC1CC2	-39	90	83	105
NC(=O)C1CCN(Cn2nnc3ccccc32)CC1	-30	107	89	107
COc1cccc(NC(=O)C2CCCN2S(=O)(=O)c2ccc3c(c2)C(C)(C)C(=O)N3C)c1 (stereo not given)	·	93	78	104
COC(=O)c1c(NC(=O)C2c3ccccc3Oc3ccccc32)sc2c1CCC(C(C)(C)C)C2 (stereo not given)	-8	108	94	103
CC(=O)Nc1nccc(-c2cc(-c3ccccc3)no2)n1	2	101	103	102
CCOC(=O)C1=C(C)N=c2s/c(=C\c3ccc4c(c3)OCO4)c(=O)n2C1c1ccc(OC)c(OC)c1 (stereo not given)	-5	·	·	101
O=C(C1CCC(=O)N1Cc1ccccc1Cl)N1CCN(c2ccc(F)cc2)CC1 (stereo not given)	5	94	88	102
O=C(Nc1cccc(Cl)c1)c1cnc[nH]1	13	94	87	107
CN(C)S(=O)(=O)c1cccc(COC(=O)c2ccc(Cl)cc2O)c1	-26	97	93	·

Next entries follow.
SMILES	HCMV UL50-53 inh	Sa growth 42C	Sa growth 42C second temp	GIV Gai3 FP
O=C(COC(=O)CSc1ccc(F)cc1)NC1CC1	-34	64	84	·
c1ccc(CN(Cc2cccs2)C(c2cccs2)c2nnnn2C2CCCC2)cc1 (stereo not given)	5	105	87	105
CCC(C)NC(=O)CSCc1nc(-c2ccc(C)cc2)oc1C (stereo not given)	-14&-22	97	85	104&101
O=C(O)C1C2C=CC3(O2)C1C(=O)N1CCCOC13 (stereo not given)	2	106	100	104
O=C(O)CCN1C(=O)c2ccc(Oc3ccc4c(c3)C(=O)N(CCC(=O)O)C4=O)cc2C1=O	-80	96	99	97
CC1CC(NNc2ccc(Br)cc2)NC(=S)N1 (stereo not given)	-41	95	69	101
COC(=O)c1cc(S(=O)(=O)NCCC(=O)N2CCOCC2)cn1C	-20	·	·	102
COc1ccc(C(=O)/C=C(\N)C(F)(F)F)c(O)c1	-11	101	81	102
CN(C)S(=O)(=O)n1cc(/C=C(\NC(=O)c2ccccc2)C(=O)N2CCOCC2)c2ccccc21	-12	110	90	108
COC(=O)C1=C(C)N=c2s/c(=C/c3ccc(OC)cc3)c(=O)n2C1c1cccs1 (stereo not given)	·	98	87	108
CCNC(=O)c1c(C)oc2ncn(C)c(=O)c12	·	93	97	105
CC(C)C[C@H](NC(=O)[C@@H](Cc1c[nH]c2ccccc12)NC(=O)[C@H](Cc1ccc(O)cc1)NC(=O)[C@H](CO)NC(=O)[C@H](Cc1c[nH]c2ccccc12)NC(=O)[C@H](Cc1cnc[nH]1)NC(=O)[C@@H]1CCC(=O)N1)C(=O)N[C@@H](CCCN=C(N)N)C(=O)N1CCC[C@H]1C(=O)NCC(N)=O	-26	93	81	101

Continued.
SMILES	HCMV UL50-53 inh	Sa growth 42C	Sa growth 42C second temp	GIV Gai3 FP
c1ccc(Nc2nc(N3CCCC3)nc(N3CCCC3)n2)cc1	2	100	90	95
CCC(=O)n1nc(-c2ccccc2)nc1N	17	94	98	103
Cc1cc2ncn(-c3ccc(S(=O)(=O)N4CCCC4)cn3)c2cc1C	-46	96	86	·
CC1CCN(C(=O)COC(=O)COc2ccccc2C#N)CC1	-19	86	89	·
CCc1ccc2[nH]c(C)c(CN3CCCCC3)c(=O)c2c1	-24	86	90	102
COc1ccc(-c2nc(C)c(CCNS(=O)(=O)c3ccc4c(c3)OCCO4)s2)cc1OC	·	80	79	97
COc1nc2ccccc2nc1N1CCCC(C(=O)N2CCCC2)C1 (stereo not given)	10	·	·	101
Cc1ccc2c(CC(=O)NCC3CCCCC3)coc2c1	-7	119	90	·
C=CCN(C(=O)c1cn(CC(C)C)c(=O)c2cc(OC)c(OC)cc12)c1ccccc1	-35	79	76	101
Cc1nc(-c2ccc(Cl)cc2)sc1CCNC(=O)C(=O)Nc1ccccc1C#N	·	93	90	104
CC(=O)NC(=O)c1cc2cc(Br)ccc2oc1=Nc1cccc2ccccc12	-20	·	·	106
O=C(O)CCc1ccc(-c2ccc(Cl)cc2)n1-c1cccc(C(F)(F)F)c1	-61	79	55	105

Following part:
SMILES	HCMV UL50-53 inh	Sa growth 42C	Sa growth 42C second temp	GIV Gai3 FP
Cc1ccc(-n2c(SCC(=O)NCc3ccc(F)cc3)nc3c([nH]c4ccccc43)c2=O)cc1	·	86	80	101
CCc1noc(-c2cccc(OCC(=O)Nc3nnc(CC(C)C)s3)c2)n1	-5	·	·	107
CC1CCCC(C)N1C(=O)CSc1nnc(-c2ccccc2)o1 (stereo not given)	17	96	86	109
Cc1ccc(C2=NN(CCC(=O)N3CCC(C(N)=O)CC3)C(=O)CC2)cc1	·	112	88	95
